CtBP-E1A inh – CtBP/E1A binding inhibition; AlphaScreen GST-E1A/His-CtBP binding, 1536-well; hits give low values; control for the full effect not named in the record; activity change, % (test concentration not listed); 340,000 tested, 0.49% active; AID 651724; in the data active means activity change below about -65%; inconclusive means about -30% to -65%; inactive means above about -30%; note: % is set by controls: 0 for no effect and ±100 for the full control effect; compound concentration not given in the record
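AlphaScreen with 125 nM GST-E1A and 125 nM His-CtBP (5X stocks) in Tris pH 8.0, 300 mM NaCl, BSA, Tween 20, TCEP. Compounds preincubated 2 h at 37 deg C, then glutathione donor/nickel acceptor beads added for 1 h at 37 deg C in dark.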
D2 potentiator – positive allosteric modulators of human D2 dopamine receptor | P14416 | 360,000 tested, 0.23% active | AID 624464 | potentiation, % (test concentration not listed) | DiscoveRx D2 beta-arrestin cells, luminescence, 90 min; 100% = 57 uM dopamine signal; active = potentiation of 50% or more; inconclusive = 30% to 50%; inactive = 30% or less;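 note: compound concentration not given in the record; tested on top of an EC20 dose of dopamine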
Target sequence (P14416 whole entry, looked up): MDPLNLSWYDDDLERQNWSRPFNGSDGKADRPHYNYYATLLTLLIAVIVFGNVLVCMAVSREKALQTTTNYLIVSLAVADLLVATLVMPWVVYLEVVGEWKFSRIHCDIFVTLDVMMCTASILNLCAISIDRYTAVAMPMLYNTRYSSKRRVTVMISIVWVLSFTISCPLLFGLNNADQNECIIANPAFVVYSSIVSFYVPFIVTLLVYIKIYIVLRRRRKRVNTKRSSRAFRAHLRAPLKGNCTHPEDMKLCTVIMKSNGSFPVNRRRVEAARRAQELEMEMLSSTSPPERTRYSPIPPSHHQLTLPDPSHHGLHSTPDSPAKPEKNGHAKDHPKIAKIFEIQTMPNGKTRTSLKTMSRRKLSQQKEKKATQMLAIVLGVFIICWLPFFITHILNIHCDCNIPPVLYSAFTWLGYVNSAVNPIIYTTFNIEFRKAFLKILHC
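PathHunter D2 cells, attached overnight at 37 deg C, received compound in DMSO plus dopamine at EC20 (50 nM final) for 90 min at 37 deg C. Beta-arrestin recruitment was read as luminescence after 1 h with detection reagent at ambient temperature.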
Six1-Eya2 inh – Six1/Eya2 interaction inhibition; Q15475+O00167; AlphaScreen GST-Six1/His-Eya2 binding, biochemical; hits give low values; control for the full effect not named in the record; activity change, % (concentration not given with the values); 360,000 tested, 0.56% active; in the data active = activity change below about -65%; inconclusive = about -30% to -65%; inactive = above about -30%; note: % is set by controls: 0 for no effect and ±100 for the full control effect
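AlphaScreen with GST-Six1 and His-Eya2 (5X mix: 250 nM and 500 nM), glutathione donor and nickel acceptor beads; buffer 50 mM Tris pH 8.0, 300 mM NaCl, 1 mM TCEP; 1 h at 37 C in the dark.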
PINK1 modulator – PINK1 expression modulation; Potency, µM (series often up to 76.6 µM), for inactives: at the top dose activation (PINK1 increase), hits mostly activators; PINK1 immunofluorescence, high-content cytometry, 24 h; 410,000 tested, 0.2% active; active = well fitted activation curve with a large enough effect; inconclusive = small, poorly fitted or top-dose-only effect; inactive = flat fitted curve, though single readings scatter; cell line not stated here;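 note: potency is the fitted concentration of half-maximal effect; % of control where 0% means no effect; nearly all actives have a fitted effect of over 65% in size; a mitochondrial uncoupler was the plate control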
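Compound titrations (5 concentrations, 24 h) on a stable cell line; DMSO and CCCP controls. Endpoint: fixed-cell PINK1 immunofluorescence with mitochondrial, cell and nuclear markers, scanned by microplate cytometer.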
D2 ag – agonists of human D2 dopamine receptor (beta-arrestin). P14416. activation, % (no concentration beside the values). DiscoveRx PathHunter D2 beta-arrestin, luminescence, 90 min; 100% = 57 uM dopamine signal. 360,000 tested, 0.084% active; in the data active = activation above about 40%; inconclusive = about 15% to 40%; inactive = below about 15%; note: compound concentration not given in the record; the text of the record calls up to 30% inactive
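DiscoveRx PathHunter D2 beta-arrestin cells (2,100/well) attached overnight, then compound-stimulated 90 min at 37 C in HBSS/10 mM HEPES/0.1% Tween-20 buffer; beta-galactosidase complementation read by luminescence after 1 h at ambient temperature. Dopamine 57 uM final (EC100) as control.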
TRPML1 agonist – human mucolipin-1 channel agonism. activation, % (concentration not given with the values). 410,000 tested, 0.12% active. AID 624414. Q9GZU1. TRPML1-expressing cells, Ca2+ dye fluorescence, FDSS; host cell line not named in the record; reference of the full effect not given here; in the data active = activation above about 50%; inconclusive = about 30% to 50%; inactive = below about 30%; note: 0% is about no effect; the text of the record puts the active cut at 80%
Target sequence (Q9GZU1 whole entry, looked up): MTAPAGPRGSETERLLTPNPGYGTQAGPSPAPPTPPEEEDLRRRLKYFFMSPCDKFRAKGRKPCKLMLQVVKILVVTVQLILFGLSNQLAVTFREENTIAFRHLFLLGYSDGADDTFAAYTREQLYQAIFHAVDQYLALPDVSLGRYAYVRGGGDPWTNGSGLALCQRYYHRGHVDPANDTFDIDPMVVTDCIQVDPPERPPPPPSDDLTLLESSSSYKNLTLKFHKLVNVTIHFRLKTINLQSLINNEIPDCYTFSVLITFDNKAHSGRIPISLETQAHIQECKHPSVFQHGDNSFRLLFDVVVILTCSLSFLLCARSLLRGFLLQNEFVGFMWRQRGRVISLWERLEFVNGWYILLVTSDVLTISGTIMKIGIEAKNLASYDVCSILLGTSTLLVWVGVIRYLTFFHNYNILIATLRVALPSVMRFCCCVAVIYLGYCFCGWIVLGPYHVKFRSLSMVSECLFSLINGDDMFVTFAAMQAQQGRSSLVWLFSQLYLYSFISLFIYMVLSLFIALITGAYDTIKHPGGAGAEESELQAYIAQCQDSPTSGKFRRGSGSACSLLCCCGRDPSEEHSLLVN
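Agonist activity was taken from a 110 s kinetic Ca2+ dye read on the FDSS after pinning compounds onto TRPML1-DL cells. The cells were seeded at 1,500/well with Tet inducer, incubated about 16 h, then dye-loaded at room temperature.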
An asterisk follows results filed as active; ? = inconclusive; . = not tested or not shown; & = joins results of further samples; [ ] = remark or other dose.

SMILES	CtBP-E1A inh	D2 potentiator	Six1-Eya2 inh	PINK1 modulator	D2 ag	TRPML1 agonist
O=S(=O)(NCCC1=CCCCC1)c1ccc(OC(F)(F)F)cc1	12.3	-0.4	20.4	3.6%	-3.8	-0.3
COc1ccc2c(c1)c(C(=O)CN1CCC(C(N)=O)CC1)c(C)n2C	4.8	-4.2	-3.4	-2.1%	-0.4	-0.9
COc1ccc(NC2CC(=O)N(c3ccc(C(=O)O)cc3)C2=O)cc1 (stereo not given)	-9.2	-9.0	-12.5	-1.9%	-4.7	1.8
O=C(CC[C@H]1O[C@@H](n2cnc3c(NC(=O)c4ccccc4)ncnc32)[C@H](O)[C@@H]1O)NCCc1cc2ccccc2[nH]1	-21.6	-4.4	13.9	2.8%	-3.1	2.2
CC(Cc1cccnc1)NC(=O)c1cc(COc2ccc(F)cc2F)on1 (stereo not given)	-0.8	-21.4	-1.4	1.3%	-3.6	1.0
COc1ccc(C(=O)NCCNc2ccc([N+](=O)[O-])cc2)cc1	.	-15.1	4.9	0.9%	-6.0	-0.2
COc1ccc(/C=C2\SC(=O)N=C2N)cc1	.	-4.4	-0.1	1.2%	-6.4	2.0
NNC(=O)c1cc(C23CC4CC(CC(C4)C2)C3)nc2ccccc12	.	-9.5	1.4	6.9%	-4.7	-0.8
O=C(O)/C=C/C(=O)Nc1cc(F)ccc1F	-2.0	-5.1	2.1	-0.2%	-3.8	3.3
COc1ccc([N+](=O)[O-])c(O)c1C(C)=O	-3.3	-8.4	11.6	2.1%	-1.9	0.1
Cc1ccc(S(=O)(=O)NC(C(=O)N2CCOCCOCCOCCOCC2)c2ccccc2)cc1 (stereo not given)	11.7	-3.4	2.4	-0.6%	0.1	0.2
O=C(N/C(=C\c1ccc(Cl)cc1)C(=O)N1CCCCC1)c1ccco1	-0.5	-1.9	2.2	1.8%	4.2	1.3
CCN(CC(=O)NCc1ccc(Cl)cc1)C(=O)/C=C/c1ccc(C#N)cc1	1.3	-32.7	-1.4	12.6%	0.6	-0.8
CC(Sc1nnc2ccccn12)C(=O)N1CCc2ccccc2C1 (stereo not given)	1.2	-16.6	-0.9	-2.1%	-2.8	-0.9
Cc1cccc(NC(=O)Nc2ccc(Br)cc2)n1	-3.9	-10.3	4.9	5.2%&1.7%	3.5	0.8&-0.3
COc1ccc(NC(=O)CS(=O)CC(=O)Nc2cc(Cl)ccc2OC)cc1 (stereo not given)	-6.4	-9.8	-2.6	?	-3.2	-0.3
CC(NCC(O)COCc1cccs1)C1CC2CCC1C2 (stereo not given)	6.3	-19.2	-0.5	-2.2%	-2.2	-0.1
CCOC(=O)c1c(C)nc(SC)c(C#N)c1-c1ccccc1	29.5	2.4	19.4	8.5%	5.3	4.4
CC(C)(C)NC(=O)CSc1nc(O)cc(=O)n1-c1ccccc1F	-9.3	3.0	1.3	0.1%	-0.9	3.9
COc1ccccc1NC(=O)CC1S/C(=N/N=C(\C)C2CCCCC2)NC1=O (stereo not given)	-0.8	-2.6	-2.8	-0.2%	-3.5	0.9
CC(NC(=O)COC(=O)c1ccc2c(c1)S(=O)(=O)N=C1CCCCCN12)C12CC3CC(CC(C3)C1)C2 (stereo not given)	-15.2	1.3	0.1	-0.4%	0.2	-0.5
COc1cc(Cl)c(NS(=O)(=O)c2cc3[nH]c(=O)c(=O)[nH]c3cc2C)c(OC)c1	-9.8	-5.2	-2.9	5.2%&6.2%	-1.4	-0.1&2.6
CCN(CC)C(=O)[C@H]1C[C@H](CC(=O)NCCCn2ccnc2)C(=O)N2CCc3c([nH]c4cc(-c5ccco5)ccc34)[C@]12C	-12.2	0.1	-11.4	1.4%	1.3	-1.2
CCOC(=O)CNC(=O)c1ccc2c(c1)OCCO2	2.5	-3.4	8.8	-2.8%	-2.4	-0.2
O=C(OCC(=O)N1CCCC1)c1ccco1	3.2	-14.1	0.0	0.9%	1.2	-0.9
CC(C)Oc1ccccc1-c1nc(SCC(=O)O)n[nH]1	-2.6	-4.6	4.1	-0.6%	-0.5	0.0
Cc1ccc(Cl)cc1NC(=O)Cn1cc(C(F)(F)F)cc(Cl)c1=O	0.3	-14.9	2.5	11.1%	-1.2	0.1
Cc1ccc2nc(-c3cccc(Br)c3)cc(C(=O)NCC3CCCO3)c2c1 (stereo not given)	-22.3	-8.2	-5.5	3.0%	-2.6	2.0
Cc1cccc(NC(=O)c2ccc3c(c2)CCN3S(C)(=O)=O)c1	-16.3	1.0	13.2	-0.3%	4.5	-1.1
Nc1cc(-c2ccccc2)n2c(n1)nc1ccccc12	-24.4	-2.5	-9.6	3.0%	-7.0	-0.5
Cc1ccc2nc(NC(=O)C3CCN(S(=O)(=O)c4cccnc4)CC3)sc2c1	-5.9	-8.6	-16.9	4.7%	-0.8	-0.6
CCc1ccccc1N(CC(=O)NCC1CCCO1)C(=O)CCC(=O)Nc1nccs1 (stereo not given)	0.1	-4.0	-0.7	-0.8%	-1.5	-1.4
CC(C)(C)NS(=O)(=O)c1cccc2nsnc12	2.0	-1.5	4.7	-0.4%	-1.8	0.1
C/C=C(\C)C(=O)NCCN1C2=NC[C@@H](Cc3ccccc3)N2C[C@@H]1Cc1ccc(OC)cc1	0.5	-9.0	-0.2	-0.7%	-4.7	0.2
N/C(Cc1ccc(Cl)cc1Cl)=N\OC(=O)Cc1cccs1	49.0	-0.7	39.0	6.3%	-0.6	0.3
CCc1ccc(S(=O)(=O)NCCc2csc(C)n2)s1	1.3	-12.7	11.7	-0.5%	-3.4	2.0
O=C(Nc1ccc2c(c1)OCO2)c1ccc(Br)c(S(=O)(=O)N2CCCC2)c1	?	-0.4	?	0.3%	1.8	1.1
COc1ccc(-c2nnc(C(C)Nc3cccc(C(=O)NC4CC4)c3)o2)cc1 (stereo not given)	-2.2	-0.7	-5.8	-0.6%	-5.6	1.6
C[C@H]1C(=O)N(c2ccccc2)[C@@H]1c1ccccc1	8.4	.	3.3	0.4%	-2.6	0.2
O=C(Nc1ccccc1N1CCN(c2ccccc2)CC1)c1cccc(F)c1	9.1	-32.2	-17.8	-0.6%	-7.1	-0.2

Looked up by structure from above, 4 records:
SMILES	CtBP-E1A inh	D2 potentiator	Six1-Eya2 inh	PINK1 modulator	D2 ag	TRPML1 agonist
C/C=C(\C)C(=O)NCCN1C2=NC[C@@H](Cc3ccccc3)N2C[C@@H]1Cc1ccc(OC)cc1	0.5	-9.0	-0.2	-0.7%	-4.7	0.2
Cc1ccc(Cl)cc1NC(=O)Cn1cc(C(F)(F)F)cc(Cl)c1=O	0.3	-14.9	2.5	11.1%	-1.2	0.1
CC(C)Oc1ccccc1-c1nc(SCC(=O)O)n[nH]1	-2.6	-4.6	4.1	-0.6%	-0.5	0.0
Cc1ccc2nc(NC(=O)C3CCN(S(=O)(=O)c4cccnc4)CC3)sc2c1	-5.9	-8.6	-16.9	4.7%	-0.8	-0.6

The results go on.
SMILES	CtBP-E1A inh	D2 potentiator	Six1-Eya2 inh	PINK1 modulator	D2 ag	TRPML1 agonist
CC(C)c1ccc(NC(=O)CSc2nc3ccccc3nc2N2CCCC2)cc1	18.1	-4.4	14.2	2.4%	-2.1	0.3
COc1cc(OC)nc(NC(=S)NC(=O)c2ccccc2)n1	-17.7	5.0	-19.7	-0.8%	-1.1	1.1
Nc1nc(SCC(=O)N2CCCC2)[nH]c(=O)c1NC(=O)c1cccs1	-23.4	-1.7	10.6	-0.3%	-5.4	-0.4
Cc1ccc(-c2nc(N3CCOCC3)sc2C(=O)N2CCCCC2)cc1	-4.2	-6.5	0.8	0.5%	-1.5	0.2
O=C(Nc1cccc(F)c1)NC1CCCCC1	1.7	-10.3	7.4	10.9%[38.3 µM]	0.8	1.2
COCCNCCCOc1ccc(Br)cc1Cl	0.0	-38.7	28.0	4.9%	-0.6	0.0
CCOC(=O)c1oc2ccccc2c1CN1CC(C)OC(C)C1 (stereo not given)	27.8	-8.3	3.4	2.3%	-17.7	-1.2
O=C(N1CCCC1)C12CC3CC(CC(C3)C1)C2	-4.2	-0.2	6.1	-1.9%[38.3 µM]	-1.3	0.3
COCCN(C(=O)COC(=O)c1oc2ccc(OC)cc2c1C)c1c(N)n(Cc2ccccc2)c(=O)[nH]c1=O	2.0	2.7	2.7	0.5%	-1.5	0.5
CC(=O)Nc1nc2cc([N+](=O)[O-])ccc2s1	-9.5	-5.8	-21.9	0.4%	-0.8	-0.4
CCOc1ccc(NC(=O)c2ccc(NC(=O)C3CCCO3)cc2)cc1 (stereo not given)	4.0	-5.2	-9.7	0.3%	-1.6	-0.2
CC1(C(=O)NCc2ccc3c(c2)OCO3)CCN1C(=O)C1(c2ccc(Cl)cc2)CC1 (stereo not given)	-12.1	-6.5	-2.7	2.6%	7.3	-0.8
Cc1ccc(C(=O)NCCc2sc(C)nc2C)cc1	-6.8	-9.8	5.3	4.8%	-2.5	0.6
O=S(=O)(c1ccc(Cl)cc1)N1CCN(C2CCCCCC2)CC1	-3.2	-8.0	-0.9	0.2%	-2.7	0.6
O=C(/C=C/c1ccc[nH]1)c1ccccc1	0.0	-1.6	6.2	-1.0%	1.2	1.5
O=C(CCc1nc2ccccc2[nH]1)NC1CCCCC1	4.6	-9.7	0.2	1.5%	-3.8	0.5
C[C@]12C=CC(=O)C=C1CC[C@@H]1[C@@H]2C(=O)C[C@@]2(C)[C@H]1CC[C@]2(O)C(=O)COC(=O)CCC(=O)O	-7.6	-0.5	2.9	4.5%	-3.1	1.1
NS(=O)(=O)c1ccc(NC(=O)c2ccc3c(c2)CCCC3)cc1	.	-8.2	1.8	39.8µM*	-1.9	1.7
O=C(NCCc1ccccc1)C(=O)NCC1OCCN1S(=O)(=O)c1ccc([N+](=O)[O-])cc1 (stereo not given)	-12.8	?	2.0	3.1%	?	1.3
Cc1ccc(NC(=O)COC(=O)c2ccc3c(c2)C(=O)N(CCc2ccccc2)C3=O)c(C)c1	1.6	-12.3	-0.2	13.1%	-9.3	0.2
COC(=O)c1ccc(NC(=O)c2cccc(N3C(=O)C4C5C=CC(C6CC56)C4C3=O)c2)cc1 (stereo not given)	3.4	3.7	-5.3	0.9%	-1.5	-0.1
CCC(C(=O)OCC(=O)Nc1ccc(C(N)=O)cc1)c1ccccc1 (stereo not given)	6.6	-9.0	6.7	0.4%	-5.3	-0.2
CC(NC(=O)c1ccc(Cl)cc1)C1CC2CCC1C2 (stereo not given)	8.5	-6.9	6.8	3.1%	0.2	-0.2
CS(=O)(=O)N(CC(=O)Nc1ccccc1-c1ccccc1)c1cccc(F)c1	-3.1	0.3	1.8	4.2%	-5.1	2.0
COc1cc(C2C(C#N)=C(N)OC3=C2C(=O)CC(C)(C)C3)cc2c1OCO2 (stereo not given)	-16.5	-5.0	-16.9	1.0%	-3.7	-0.7
COc1ccc(OCC(O)CN2CCNCC2)cc1 (stereo not given)	2.8	-22.9	8.0	1.6%	-2.3	0.1

Source: PubChem (National Center for Advancing Translational Sciences (NCATS))
